HCMV NEC inh: inhibitors of HCMV UL50-UL53 interaction, biochemical, HTRF | inhibition, % (test concentration not listed) | 190,000 compounds, 0.15% hits | HCMV UL50-UL53 nuclear egress complex (human cytomegalovirus) | normalized percent inhibition | AID 1918969, 2023;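 active = both replicates at 50% or more, plus weaker picks with an unusually low signal ratio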;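 note: stock transfer was 100 nL into about 20 µL; 0% = negative control wells and 100% = wells with untagged competitor protein; inactives centre near -12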
GIV-Gai inh: inhibitors of GIV peptide binding to Galpha-i3, primary screen, biochemical, fluorescence polarization, FITC-GIV GBA peptide, rat Galphai3. Guanine nucleotide-binding protein G(i) subunit alpha-3 (Rattus norvegicus), P08753. 90 min; stronger effect = lower value; scaled: aluminum fluoride 0%, vehicle 100%. percent of control (FP), % (test concentration not listed). 210,000 compounds, 0.42% hits;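 active = replicate mean at 85% of control or lower, very high polarization wells dropped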;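 note: wells of about 15 µL received 100 nL stock; the first replicate is given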
Target sequence (P08753 whole entry, looked up): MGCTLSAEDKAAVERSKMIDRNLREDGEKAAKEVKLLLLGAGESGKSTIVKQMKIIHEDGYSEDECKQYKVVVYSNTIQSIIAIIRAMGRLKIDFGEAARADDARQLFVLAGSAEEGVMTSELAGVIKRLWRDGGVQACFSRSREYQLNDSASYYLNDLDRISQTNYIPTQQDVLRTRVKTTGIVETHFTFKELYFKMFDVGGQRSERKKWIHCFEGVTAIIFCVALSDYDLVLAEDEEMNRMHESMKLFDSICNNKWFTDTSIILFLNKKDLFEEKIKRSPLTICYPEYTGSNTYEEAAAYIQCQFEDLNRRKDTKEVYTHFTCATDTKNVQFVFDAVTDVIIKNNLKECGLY
Sa growth 42C: S. aureus growth inhibition at 42 and 30 °C, primary screen, LtaS inhibitor project, RN4220, two temperatures | OD600, 20 h, 42 °C; stronger effect = lower value | relative growth, % (test concentration not listed) | 170,000 compounds, 0.53% hits | AID 720641, 2013;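 active = growth at 42 °C up to 50% and 20 or more points under that at 30 °C, or under 10% at both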;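 note: 300 nL library stock went into each well; scaled to the means of positive and negative controls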
Sa growth 42C second temp: recorded beside Sa growth 42C, whose call it bears; relative growth, %; measured here: growth at 30 °C;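 optical density after 20 h as mean of two plates; 100% = untreated growth and lower means inhibition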
The depositor's hits bear a star; nt = not tested or not shown; & = joins results of further samples.

SMILES | HCMV NEC inh | GIV-Gai inh | Sa growth 42C | Sa growth 42C second temp
N#C/C(=C/c1cn(CC(N)=O)c2ccccc12)c1ccc(F)cc1 | -2 | 103 | 112 | 105
COc1ccccc1OCc1ccc(C(=O)NC(C)(C)C)o1 | 4 | 105 | 92 | 86
Cc1nc(-c2ccc(F)cc2)sc1CCNC(=O)c1ccc(OC(C)C)cc1 | nt | 103 | 98 | 90
CCn1c(CNC(=O)N2CCCCC2)nnc1SC | 6 | 103 | 108 | 86
Cc1ccc(OCc2nc(-c3ccc(C(=O)N4CCN(c5cccc(C(F)(F)F)c5)CC4)cc3)oc2C)cc1 | -5 | 99 | 92 | 89
CCCn1c(CCNC(=O)c2cccc(C)c2)nc2ccccc21 | nt | 98 | 87 | 79
O=C(Nc1ccc2nc(SCC(=O)N3CCCc4ccccc43)sc2c1)c1ccc(F)cc1 | -12 | 105 | 115 | 82
CCn1c(CSc2nc3ccccc3s2)nnc1SCC(=O)c1c[nH]c2ccccc12 | -24 | nt | 125 | 89
CCCCCN(c1nc2nc(C)c(Cl)c(C)n2n1)S(=O)(=O)c1ccc(C)cc1 | 1 | 97 | nt | nt
NC[C@H]1O[C@H](OC2[C@@H](N)C[C@@H](N)[C@H](O[C@H]3O[C@H](CO)[C@@H](O)[C@H](N)[C@H]3O)[C@H]2O)[C@H](O)[C@@H](O)[C@@H]1O (some centres undefined) | 7 | nt | 99 | 98
FC(F)(F)c1ccc(NCCN2CCOCC2)nc1 | -40 | 97 | 95 | 102
O=C(c1cc(-c2ccco2)on1)N(C1CCCCC1)C1CCCCC1 | nt | 100 | 108 | 96
CCCOc1ccc(C(=O)Nc2cc3c(cc2N2CCCCC2)n(C)c(=O)n3C)cc1 | -8 | 103 | 101 | 88
CCCc1cc(=O)oc2cc(OC(C(=O)OCC)c3ccccc3)c(Cl)cc12 (centres undefined) | nt | 94 | 99 | 83
CCOc1ccc(N2C(=O)CC(Sc3nc(C)ccc3C#N)C2=O)cc1 (centres undefined) | -43 | 112 | nt | nt
Cc1c(Cl)cccc1-c1ccc(CNc2ccc3[nH]c(=O)[nH]c3c2)o1 | -9 | 104 | 110 | 99
Cn1c(SCC(=O)NCc2ccc(F)cc2)nc2ccccc21 | -4 | nt | 101 | 95
COc1ccc(CCC(=O)Nc2cccc(C)n2)cc1 | -3 | nt | 92 | 80
Cc1c(Br)c(=O)[nH]c(=O)n1Cc1ccccc1 | -10 | nt | 101 | 94
CC(=O)Nc1ccc2c(c1)C(=O)N(C1CCCCC1)C2=O | -6 | 104 | 118 | 98
Cc1cc(C)nc(NN=C2CCCC2)n1 | -11 | nt | 78 | 58
COc1ccc(CN2C(=O)N(c3ccc(C)cc3)C(=O)C2CC(=O)Nc2ccccc2)cc1OC (centres undefined) | -13 | 99 | 99 | 84
O=C(O)c1cc(N2CCN(C(c3ccc(F)cc3)c3ccc(F)cc3)CC2)ccc1NC(=O)C1CC1 | -34 | 103 | nt | nt
COc1ccc(CCN2C(=O)CC(N3CCCC(C(F)(F)F)C3)C2=O)cc1 (centres undefined) | -5 | nt | 85 | 93
C#CCSc1nc2ccccc2n1C(=O)c1ccc(S(=O)(=O)N2CCOCC2)cc1 | 4 | 101 | 101 | 97
O=C(NCC1CCCO1)c1cccc(-c2ccc(O)cc2)c1 (centres undefined) | -23 | nt | 86 | 93
CCN1C(=O)C2(c3ccccc31)c1c(oc3cc(C)c(C)cc3c1=O)C(=O)N2CC1CCCO1 (centres undefined) | -6 | 108 | nt | nt
Oc1ccc2c(c1)C1CCCC1(N1CCOCC1)O2 (centres undefined) | nt | 103 | 113 | 70
CC(C)c1ccc2c(c1)c1c3n2CCN(CC#N)C3CCC1 (centres undefined) | nt | 106 | 89 | 95
C=CCN1C(=O)CSC1=Nc1ccc(O)cc1 | nt | 100 | 99 | 84
COc1ccc(CCNC(=O)c2ccc3c(c2)OCO3)cc1 | 14 | 104 | 82 | 103
CCc1ccc(NC(=O)c2c(OC)cccc2OC)cc1 | -7 | 93 | 100 | 85
CCOCCn1ccc2c(OCC(=O)Nc3cc(C)cc(C)c3)cccc2c1=O | nt | 101 | 124 | 87
Cn1c(CNc2ccccc2)cc(=O)n(C)c1=O | nt | 100 | 99 | 88
COc1ccc(C(=O)Oc2cc(N)n(S(=O)(=O)c3ccc(F)cc3)n2)cc1 | -25 | 103 | nt | nt
Cc1cccc(C(=O)Nc2cnc3ccccn3c2=O)c1 | -116 | 101 | nt | nt
O=C(CCS(=O)(=O)c1cc2c(cc1Cl)NC(=O)CO2)Nc1cccc(Cl)c1 | 10 | 105 | 115 | 92
O=C(c1ccc(F)cc1)n1nc(-c2cccnc2)nc1NCc1ccccc1 | -35 | 104 | 103 | 84
C=C(C)CC1N(c2ccccc2)C(=O)C2C(C(=O)O)C3C=CC21O3 (centres undefined) | -8 | nt | 103 | 97
Cc1ccc2c(c1)c(=O)c1ccccc1n2CC(=O)Nc1ccc(Oc2ccccc2)cc1 | -4 | 112 | nt | nt
Cc1cc(O)c(C(c2cccc(F)c2)N2CCC(C)CC2)c(=O)n1Cc1ccco1 (centres undefined) | nt | 102 | 108 | 93
COc1ccc(/C=N/n2c(C)nc3ccccc3c2=O)cc1 | -11 | nt | 116 | 85
Cc1ccc2nc(COC(=O)c3cccnc3Cl)cc(=O)n2c1 | -36 | nt | 105 | 87
CCC(Oc1ccccc1)C(=O)N1CCC(C(N)=O)CC1 (centres undefined) | -15 | 101 | 110 | 93
CCOC(=O)Cc1ccc(NC(=O)N(C(C)C)C2CCN(C(C)=O)CC2)cc1 | -20 | 100 | 104 | 91

Look-ups from the entries so far:
COc1ccc(CCNC(=O)c2ccc3c(c2)OCO3)cc1 in GIV-Gai inh is listed with 104
CCN1C(=O)C2(c3ccccc31)c1c(oc3cc(C)c(C)cc3c1=O)C(=O)N2CC1CCCO1 (centres undefined) in HCMV NEC inh is listed with -6

(listing goes on)
SMILES | HCMV NEC inh | GIV-Gai inh | Sa growth 42C | Sa growth 42C second temp
O=C(NC1CCCCCC1)C1c2ccccc2C(=O)N1Cc1ccc(F)cc1 (centres undefined) | 6 | 108 | 94 | 104
CCN(CC)C(=S)Nc1c(C)cccc1C | -7 | nt | 91 | 91
CCN(CC)CCCNC(=O)C1CCN(S(C)(=O)=O)CC1 | nt | 105 | 131 | 94
O=C(NCc1ccc2c(c1)CCN2C(=O)c1ccc(F)cc1)c1ccc(Br)o1 | nt | 105 | 102 | 84
Cc1nc2cccc(C(=O)Oc3ccc(C(C)(C)C)cc3)c2o1 | -8 | nt | 94 | 82
Fc1ccc(-c2nc(-c3ccc(C(F)(F)F)cc3)no2)c(Cl)c1 | -13 | 106 | 108 | 95
Cc1nc(SC(C)C(=O)Nc2ccccc2C)cc(-c2ccccc2)n1 (centres undefined) | -20 | 102 | 110 | 82
Cc1cc(C)c(S(=O)(=O)c2c(C(=O)N3CCSCC3)cnc3ccc(Cl)cc23)cc1C | -13 | 104 | nt | nt
Cc1ccc(Nc2cc(N3CCCC(C)C3)c3nonc3c2[N+](=O)[O-])c(C)c1 (centres undefined) | -19 | 108 | nt | nt
CSc1cccc(NC(=O)c2ccc(CN3CCOCC3)cc2)c1 | -17 | nt | 91 | 80
COc1ccc(C)cc1NS(C)(=O)=O | -33 | 98 | 89 | 96
Cc1cc(O)c2c(c1)C(=O)c1cc(O)cc(O)c1C2=O | -51&-75 | 124 | nt | nt
COc1cccc(CNC(=O)CN2CCCN(Cc3ccccc3)S2(=O)=O)c1 | -20 | 96 | 98 | 89
O=C(Nc1ccc(Br)cc1F)c1cc2nc(-c3ccco3)cc(C(F)(F)Cl)n2n1 | -24 | 103 | 83 | 89
COc1ccc(OC)c(CCNC(=O)CCCn2c(=O)c3cccn3c3ccc(F)cc32)c1 | 3 | 103 | 106 | 68
COc1ccc(N2CC(C(=O)NCCc3c[nH]c4ccccc34)CC2=O)cc1 (centres undefined) | -14 | 101 | 83 | 82
CCc1nnc(N2CCN(c3ncnc4c3oc3ccccc34)CC2)s1 | nt | 103 | 84 | 82
COc1ccc(C(=O)On2c(-c3ccccc3)cc3ccccc32)cc1 | nt | 99 | 115 | 93
Cc1ccc(OCC(=O)Nc2nnc(S(=O)(=O)N3CCc4ccccc43)s2)cc1 | -4 | 103 | 114 | 99
O=C(O)C1C2C=CC3(CN(C(c4ccccc4)c4ccccc4)C(=O)C13)O2 (centres undefined) | 15 | 94 | 84 | 113
CCOC(=O)C1=C(SCC)c2ccc(-c3ccccc3)n2C1=O | -44 | nt | 107 | 90
O=C(NCc1cccc(Cl)c1)c1cnc(N2CCCCC2)c2ccccc12 | nt | 106 | 113 | 102
Cc1ccc2oc(-c3ccc(C)c(NC(=O)/C=C/c4ccc(Cl)cc4)c3)nc2c1 | -16 | 111 | 92 | 94
CCN(CC)S(=O)(=O)c1ccc(N2CC(C(=O)Nc3ccc4c(c3)OCO4)CC2=O)cc1 (centres undefined) | -27 | nt | 79 | 97
COc1nc(C)cc(C)c1C(N)=O | -7 | 102 | 130 | 96
CCNC(=O)C1CCN(S(=O)(=O)c2c(C)[nH]c(C)c2C(=O)N2CCCCC2)CC1 | -28 | 106 | nt | nt
C/C(=N\OCc1ccc(C(=O)N2CCCCC2)o1)c1cccc(C(F)(F)F)c1 | -12 | 103 | 80 | 57
O=C(/C=N/O)Nc1ccc(C(=O)O)cc1 | -18 | nt | 73 | 93
CCCOC(=O)c1cc(-c2ccc(/C=C3\C(=O)N(CCCO)C(=O)C(C#N)=C3C)o2)ccc1Cl | -42 | 101 | 67 | 42
CNC(=O)CCc1cc2ccccc2[nH]1 | -4 | nt | 84 | 88

A second format for 2 compounds above:
Each structure is followed by: HCMV NEC inh | GIV-Gai inh | Sa growth 42C | Sa growth 42C second temp
CCc1ccc(NC(=O)c2c(OC)cccc2OC)cc1
  -7 | 93 | 100 | 85
COc1ccc(C(=O)Oc2cc(N)n(S(=O)(=O)c3ccc(F)cc3)n2)cc1
  -25 | 103 | nt | nt

An excerpt of these results, with two lines to a compound.
Under each structure – HCMV NEC inh, GIV-Gai inh, Sa growth 42C, Sa growth 42C second temp
O=C(O)C1C2C=CC3(CN(C(c4ccccc4)c4ccccc4)C(=O)C13)O2 (centres undefined)
  15, 94, 84, 113
O=C(NCc1cccc(Cl)c1)c1cnc(N2CCCCC2)c2ccccc12
  nt, 106, 113, 102

(further entries)
SMILES | HCMV NEC inh | GIV-Gai inh | Sa growth 42C | Sa growth 42C second temp
CCC(C)(C)C(=O)NCc1ccc2c(c1)OCO2 | -18 | nt | 104 | 81
CCOC(=O)c1cc2c(N)[nH]nc2[nH]c1=O | -26 | nt | 75 | 82
O=S(=O)(Cc1noc(-c2ccc(OC(F)(F)F)cc2)n1)Cc1ccco1 | -10 | 106 | 93 | 89
CC(=O)Nc1ccc(Nc2c3c4c(cccc4[nH]c2=O)C(=O)c2ccccc2-3)cc1 | nt | 61* | 122 | 90
C=CCSCC1Nc2cc(Cl)c(S(N)(=O)=O)cc2S(=O)(=O)N1 (centres undefined) | -33&7 | nt | 92 | 84
Cc1cccc(OCC(=O)N(Cc2ccc(C(C)(C)C)cc2)Cc2ccco2)c1 | -17 | 101 | 87 | 70
CC(C)(C)OC(=O)Nc1cn(-c2ccccc2)nc1-c1ccccc1 | 27 | nt | 86 | 98
Cc1cc(/C=N/NC(=S)Nc2cccnc2)c(C)n1-c1cccc(S(=O)(=O)N2CCOCC2)c1 | -7 | nt | 91 | 85
O=C(O)CCC(=O)N1CCc2cc(S(=O)(=O)NCC3CCCO3)ccc21 (centres undefined) | -31 | 96 | nt | nt
Cc1[nH]cnc1C(F)(F)F | 0 | nt | 116 | 94
Cc1ccccc1S(=O)(=O)N1CCN(c2cc(=O)n3nc(-c4ccccc4)sc3n2)CC1 | 28 | 100 | nt | nt
CCN(Cc1ccccc1)c1ncc(NS(=O)(=O)CC)cc1C(=O)O | -53 | 110 | nt | nt
CCN(Cc1ccccc1)C(=O)CCN1C(=O)/C(=C\c2ccco2)SC1=S | -40 | 112 | 81 | 41
CCOc1ccc(NC(=O)C2CC=CCC2C(=O)OC(C)CC)cc1 (centres undefined) | -2 | nt | 84 | 87
O=C(c1cccc(Cl)c1)n1nc(-c2ccco2)nc1NCc1cccs1 | -34 | 100 | 102 | 87
Cc1csc(NC(=O)CC(C)(C)C)n1 | -20 | nt | 99 | 89
CN(C)c1ccc(/C=C/C(O)=C2/C(=O)N(C)C3(C)CC2c2ccccc2O3)cc1 (centres undefined) | -3 | 178 | 102 | 95
CCOC(=O)c1ccc(Nc2cc(C)nc(C)c2C(=O)OCC)cc1 | nt | 97 | 68 | 66
Cc1ccccc1CN1C(=O)c2ccccc2Sc2ccc(C(=O)NCc3cccs3)cc21 | nt | 98 | 118 | 96
O=C(c1ccccc1)C1CCN(C(=O)c2ccc(Cl)cc2)CC1 | 6 | 102 | 92 | 97
Cc1ccc(C2=NN(C(=O)COC(=O)c3ccc(-n4cnnn4)cc3)C(c3ccco3)C2)cc1 (centres undefined) | -10 | nt | 84 | 88
CCOC(=O)c1sc2nc(N3CCOCC3)c3c(c2c1N)CC(C)(C)OC3 | 12 | 99 | nt | nt

Screening data (PubChem)
